Screening results: PubChem, National Center for Advancing Translational Sciences (NCATS)
PMP22 txn: modulators of PMP22 gene transcription in S16 Schwann cells | S16 Pmp22-F2sN Schwann cells (luciferase reporters placed in the Pmp22 gene), FLuc/NLuc coincidence luminescence, 24 h | Potency, µM (top dose mostly 57.5 µM), without a hit: at the highest dose activity change, negative = inhibition, most hits filed as inhibitors | actives 2% (n = 43,000); active = clear falling dose curves in both reporters; inconclusive = both reporters move, but less clearly or upward; inactive = either reporter flat; the % is the NLuc reporter signal; further: on the % scale 0 is the no-effect control and ±100 the full control effect; some results filed as inactive show a strong effect at the top dose
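Transcriptional readout in edited S16(c9) cells: two luciferases reported from the Pmp22 locus, measured in turn after 24 h compound incubation.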
HTT promoter inh: HTT promoter inhibition | HEK293 HTT promoter firefly luciferase reporter (activity 0% = vehicle and -100% = no light), 24 h | Potency, µM (highest dose often 57.5 µM), without a hit: at the top dose activity change, negative = inhibition, hits mostly inhibitors | actives 0.93% (n = 48,000); active means well fitted inhibition curve with a large enough effect; inconclusive means small, poorly fitted or top-dose-only effect; inactive means no such curve, though single readings can be large or run the other way; further: nearly all actives have a fitted effect of over 50% in size
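HEK293 luciferase promoter-reporter cells (2,500/well) plated 24 h, then compounds added at up to 57.5 uM final for 24 h at 37 °C. Firefly luminescence by Dual-Glo, normalized to vehicle (0%) and zero RLU (-100%).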
* hit, by the source's call; u = inconclusive; x = not tested or not shown; [ ] = dose if it differs, or a comment. Potency means the concentration at half of the fitted maximal effect. Compounds were not picked by outcome; overall some 2.4% were active at least once.

The line under a structure holds: PMP22 txn | HTT promoter inh
CCOC(=O)CN(Cc1ccccc1)C(C(=O)NC1CCCCC1)c1ccc(OC)cc1 (stereo not drawn)
→ -1% | u
Cc1ccc(Cl)cc1N1CCN(c2ncnc3c2nc2n3CCCC2)CC1
→ -6% | -5%
CCOc1ccc(Sc2cc(C(=O)NCCc3ccccc3)c3ccccc3n2)cc1
→ -13% | -19%
COc1cccc(NC(=O)NCc2ccc3c(c2)CCN3C(=O)c2ccccc2)c1
→ 7% | -14%
COc1ccc(C2C(C(=O)Nc3ccc(C)cc3C)=C(C)Nc3nc(SC)nn32)cc1OC (stereo not drawn)
→ -121% | -15%
CCCCNC(=O)CN1CCN(c2ccc(NC(=O)c3ccc(OC)cc3)cc2C(=O)O)CC1
→ 5% | -11%
C=C1C(=CC=C2CCCC3(C)[C@@H]([C@H](C)C=CC=CC(O)(CC)CC)CC[C@@H]23)C[C@@H](O)C[C@@H]1O (stereo partly drawn)
→ x | -11%
O=C(CSc1oc(-c2ccc(F)cc2)nc1S(=O)(=O)c1ccccc1)NC1CCCCC1
→ u | -16%
COc1ccc(/C=C(\C#N)c2nc(-c3cc4c(ccc5ccccc54)oc3=O)cs2)cc1O
→ 8.9µM* | 8%
CCOc1ccccc1NC(=O)c1cc2ccc3cccnc3c2[nH]1
→ -6% | 38%[activator]
Cc1ccc(CNC(=O)CSCc2nc(-c3ccc(Cl)cc3)oc2C)cc1
→ 20% | u
COc1ccc(NC(=O)Cn2c(=O)cc(C)c3c(C)nn(C)c32)cc1
→ 16µM* | -27%
Cc1cc(C)cc(NC(=O)CN(C)S(=O)(=O)c2ccc3[nH]c4c(c3c2)CCCC4)c1
→ u | -19%
CCc1ccccc1NC(=O)c1ccc2nc(CCc3ccccc3)oc2c1
→ 1% | 0%
COc1ccc(N2CCN(C(=O)CCc3c(C)nc4cc(-c5cccc(F)c5)nn4c3C)CC2)cc1
→ 1% | u

The closing 4 records of the part before open the next one.
The line under a structure holds: PMP22 txn | HTT promoter inh
COc1ccc(NC(=O)Cn2c(=O)cc(C)c3c(C)nn(C)c32)cc1
→ 16µM* | -27%
Cc1cc(C)cc(NC(=O)CN(C)S(=O)(=O)c2ccc3[nH]c4c(c3c2)CCCC4)c1
→ u | -19%
CCc1ccccc1NC(=O)c1ccc2nc(CCc3ccccc3)oc2c1
→ 1% | 0%
COc1ccc(N2CCN(C(=O)CCc3c(C)nc4cc(-c5cccc(F)c5)nn4c3C)CC2)cc1
→ 1% | u
CCc1nnc(NC(=O)c2nc(SC)ncc2Cl)s1
→ 3% | -4%
O=C(NCC(c1cccnc1)N1CCc2ccccc21)c1cccc(C(F)(F)F)c1 (stereo not drawn)
→ u | u
O=C(Cn1cc2c(n1)CCCC2)Nc1cc(C(F)(F)F)ccc1Cl
→ -10% | -30%
O=C(Nc1ccc(Cl)c(Cl)c1)c1cc(S(=O)(=O)N2CCN(c3cccc(Cl)c3)CC2)ccc1F
→ -6% | -10%
CCOc1ccccc1NC(=O)c1nn(C)c2c1CSc1ccccc1-2
→ 13% | -9%
Cc1ccc(-c2noc(-c3nnn(-c4ccc(Br)cc4F)c3C)n2)cc1
→ -15% | 8%
Cc1ccc(Nc2c(-c3cccnc3)nc3ccc(C)cn23)cc1
→ 30% | -20%
CCCCOc1ccc(Cn2c(=O)oc3ccc(C)cc32)cc1
→ -11% | -26%
Cc1ccc2c(c1)N(C(=O)N1CCC(C(=O)NCc3ccco3)CC1)CC(C)O2 (stereo not drawn)
→ 0% | -12%
CCOc1ccc(S(=O)(=O)NCCc2sc3nc(-c4ccc(C)cc4)nn3c2C)cc1
→ u | u
COc1cccc(CNS(=O)(=O)c2c(C(=O)N3CCC(C)CC3)c(C)n(C)c2C)c1
→ 37% | -20%
COc1ccc(NC(=O)Cn2cc(C(=O)c3ccccc3)c(=O)c3cc(OC)ccc32)c(OC)c1
→ -25% | 6%
Cc1cc(C)cc(C(=O)Nc2cc(C(F)(F)F)ccc2N2CCN(c3ccccc3)CC2)c1
→ -20% | -1%
Cc1cccc(N(CC(=O)Nc2ccc(Br)cc2)S(C)(=O)=O)c1C
→ u | u
COc1cccc(CNC(=O)CCc2c(C)c3ccc(O)c(C)c3oc2=O)c1
→ u | -6%
CCCSC1=NC2(CCN(C(=O)NC3CCCCC3)CC2)N=C1c1ccccc1
→ 0% | -18%
Cc1cc(C)cc(NC(=O)CSc2nc3ncccc3[nH]2)c1
→ -55% | -21%
COc1ccc(-c2nc(CCNC(=O)c3cc(OC)c(OC)c(OC)c3)cs2)cc1
→ -27% | -7%
Cc1ccc(S(=O)(=O)N2CCC(C(=O)NCc3ccccc3Cl)CC2)cc1
→ 3% | -18%
CCOC(=O)c1ccc(NC(=O)NCCOCCn2c(=O)oc3ccccc32)cc1
→ -19% | u
CC(=O)N1CCCc2cc(S(=O)(=O)N(C)CC(=O)Nc3cccc(Cl)c3C)ccc21
→ u | u
Cc1ccc(Cl)cc1N(C)C(=O)c1cnc(N2CCOCC2)c2ccccc12
→ -12% | -5%
Cc1ccc(-c2nnc3ccccc3c2C(=O)Nc2ccc(F)cc2)cc1
→ 54% | -13%
CSc1ncc(C(=O)Nc2ccccc2C(=O)c2ccccc2)c(C(F)(F)F)n1
→ 21% | -11%
Cc1cccc(NC(=O)CSc2ncc(-c3ccccc3)[nH]2)c1C
→ -1% | 20%
Cc1cc(-c2ccc(S(=O)(=O)Nc3ccc(Br)c(C)c3)s2)on1
→ u | u
CCn1cc(C(=O)NCCN(CC(C)C)CC(C)C)c(=O)c2cc(S(=O)(=O)N(C)C3CCCCC3)ccc21
→ 4% | -8%
COc1cc(-c2nn(C3CCC(N4CCN(C(C)=O)CC4)CC3)c3ncnc(N)c23)ccc1NC(=O)c1cc2ccccc2n1C (stereo not drawn)
→ x | -25%
O=C(Cn1ncc2c3ccccc3n(Cc3ccc(Cl)cc3)c2c1=O)NCCC1=CCCCC1
→ 3% | -11%
CCc1ccccc1NC(=O)c1cn(C)c(=O)c2ccccc12
→ -64% | -11%
COc1ccccc1CNc1ccc(-c2nc(-c3ccco3)no2)cc1[N+](=O)[O-]
→ u | -6%
Cc1ccc(Cl)cc1NC(=O)N1CCC2(CC1)Oc1ccccc1C(=O)N2Cc1ccccc1F
→ u | -29%
O=C(COc1ccccc1)Nc1ccc(C(=O)OCc2cc(=O)n3nc(C4CC4)sc3n2)cc1
→ -12% | -9%
CCOC(=O)c1c(NC(=O)c2cc(-c3cccc(OC)c3)on2)sc2c1CCCC2
→ -36% | 4%
Cc1c(C(=O)OCCOc2ccccc2)[nH]c2c1C(=O)CC(c1ccccc1)C2 (stereo not drawn)
→ u | u
COc1cc(N)c(Cl)cc1C(=O)NC1CCN(Cc2ccccc2)CC1
→ x | 1%
Fc1ccc(Nc2c(-c3ccccn3)nc3ccc(Cl)cn23)cc1
→ 2% | 3%
Cc1nc(SCC(=O)Nc2ccccc2C)cc(-c2ccccc2)n1
→ u | -2%
CS(=O)(=O)N(CC(=O)NCCSCc1ccccc1)c1cc(C(F)(F)F)ccc1Cl
→ u | u
CCOc1ccc(NCc2nc3ccccc3n2CCOc2ccc(C)cc2)cc1
→ u | u
CCCC(=O)N(c1ccc2oc3c(c2c1)CCCC3)S(=O)(=O)c1ccc(CC)cc1
→ -24% | -7%
CCCSc1nc(-c2ccc(OC)cc2)cc(-c2ccccc2OC)c1C#N
→ 6% | 18%
CCN1CCN(C(=O)N[C@H](C(=O)N[C@@H]2C(=O)N3C(C(=O)O)=C(CSc4nnnn4C)CS[C@@H]23)c2ccc(O)cc2)C(=O)C1=O
→ x | 1%[19.1 µM]
O=C(Cn1c(SCc2ccccc2F)nc2ccncc21)Nc1ccccc1C(F)(F)F
→ -6% | 5%
CN1CCc2nc3sc(C(=O)Nc4ccccc4C(F)(F)F)c(N)c3cc2C1
→ -47% | -12%

Some of the entries so far, as a markdown table.
| compound | PMP22 txn | HTT promoter inh |
| --- | --- | --- |
| Cc1cc(-c2ccc(S(=O)(=O)Nc3ccc(Br)c(C)c3)s2)on1 | u | u |
| Cc1nc(SCC(=O)Nc2ccccc2C)cc(-c2ccccc2)n1 | u | -2% |

Next records
The line under a structure holds: PMP22 txn | HTT promoter inh
Cc1cc(CN2CCN(c3cccc(C)c3C)CC2)cs1
→ -30% | -8%
CCOc1ccc(CC(=O)Nc2c(C(=O)c3ccc(C)cc3)oc3ccccc23)cc1OCC
→ u | 0%
COc1ccc(OC)c(NC2=C(c3ccccc3)C(=O)c3ccccc32)c1
→ u | u
CCCN1C(=O)c2[nH]nc(-c3ccc(F)cc3)c2C1c1ccccn1 (stereo not drawn)
→ 8% | -4%
CCCCOC(=O)c1ccc(Nc2nc3ccc(C(=O)c4ccccc4)cc3n3cnnc23)cc1
→ u | 0%
Cc1cc2c(cc1S(=O)(=O)Nc1cc(C(F)(F)F)cc(C(F)(F)F)c1)OCC(=O)N2
→ -57% | -22%
CC(C(=O)NCc1ccccc1F)n1ccc2cc(S(=O)(=O)N3CCCC3)ccc21 (stereo not drawn)
→ u | -27%
CC(NC(=O)CCCn1c(=O)c2cccn2c2cccnc21)c1ccccc1 (stereo not drawn)
→ u | 1%
CCOc1ccc(Sc2cc(C(=O)NC(C)c3ccccc3)c3ccccc3n2)cc1 (stereo not drawn)
→ -29% | -28%
COc1ccc(-c2noc(CSc3nnc(-c4ccncc4)n3-c3ccc(C)cc3)n2)cc1
→ 8.9µM* | u
CC(C)c1ccc(NC(=O)c2cc(S(=O)(=O)NC3CCCCC3)ccc2F)cc1
→ u | u
O=S(=O)(NCCc1csc2nc(-c3ccc(Cl)cc3)nn12)c1ccc2c(c1)OCCO2
→ u | u
COc1ccc(OC)c(CNC(=O)CN2C(=O)CCn3nc(-c4cn(C)c5ccccc45)cc32)c1
→ 74% | 10%
Cc1cccc(NC(=O)c2oc3ccccc3c2NC(=O)c2cc(=O)c3cc(Cl)ccc3o2)c1
→ -3% | 17%
COc1ccc(-n2ccnc(NCCc3ccc(S(N)(=O)=O)cc3)c2=O)cc1
→ u | -32%
CCCCNC(=O)CC1Nc2cc(C)c(C)cc2NC1=O (stereo not drawn)
→ -36% | 11%
COc1ccc(-n2c(SCC(=O)Nc3cccc(C)c3C)nc3c([nH]c4ccccc43)c2=O)cc1
→ u | -4%
COc1ccc(C(=O)Nc2nc3c(s2)Cc2c(Br)ccc(OC)c2-3)cc1OC
→ u | -24%
CC(=O)Nc1cccc(NC(=O)C(=O)NCCc2sc(-c3ccccc3)nc2C)c1
→ 2.5µM* | -22%
Cn1c(=O)cc(SCC(=O)N2CCN(c3ccccc3F)CC2)c2ccccc21
→ 5% | -10%
CCOc1cccc(C(c2c(C)n(C)n(-c3ccccc3)c2=O)c2c(C)n(C)n(-c3ccccc3)c2=O)c1OC
→ 20% | 0%
CCCCOc1ccc(C(=O)N(Cc2ccc(C(C)C)cc2)C2CCS(=O)(=O)C2)cc1 (stereo not drawn)
→ -17% | u
COc1cc(C(=O)NCC(c2ccc3c(c2)OCO3)N2CCOCC2)cc(OC)c1OC (stereo not drawn)
→ -9% | 0%
O=S(=O)(Nc1cccc(-c2ccc(N3CCOCC3)nn2)c1)c1cc(C(F)(F)F)ccc1Cl
→ u | 6%
O=C(NCc1ccccc1)c1cc2sccc2n1Cc1ccc(F)cc1
→ u | -17%
O=S(=O)(c1ccccc1)n1nc(-c2ccco2)nc1NCc1ccccc1
→ u | 37%[activator]
Cc1cc(C)cc(NC(=O)CN2C(=O)COc3ccc(S(=O)(=O)Nc4ccccc4)cc32)c1
→ u | -9%
Cc1ccc(C(=O)n2nc(C)c(S(=O)(=O)N3CCOCC3)c2C)cc1
→ u | -6%
CCc1ccc(NC(=O)CC2C(=O)N(c3ccc(C)cc3)C(=O)N2C2CCCC2)cc1 (stereo not drawn)
→ u | 3%
COc1ccc(NC(=O)CN2C(=O)C(C)(C)c3ccccc32)cc1Cl
→ -9% | u
COc1cccc(-c2nc(CS(=O)(=O)CC(=O)Nc3cc(F)ccc3F)c(C)o2)c1
→ -12% | -29%
CCCCOc1ccc(C(=O)N(Cc2ccc(N(C)C)cc2)Cc2ccco2)cc1
→ u | u
CCC1CCCCN1S(=O)(=O)c1ccc(C(=O)Nc2sc3c(c2C(=O)NC)CCC3)cc1 (stereo not drawn)
→ u | u
Cn1c(-c2cccc(Br)c2)cnc1NCc1cccc(F)c1
→ u | -20%
COC(=O)c1ccc(Nc2ncnc3c2nc2n3CCCC2)cc1
→ 0% | u
Cc1ccc(CSC2=Nc3ccccc3C3=NC(CCC(=O)NC4CCCCC4)C(=O)N23)cc1 (stereo not drawn)
→ -3% | -7%
CCOC(=O)c1cc(-c2ccccc2)n(CCCC(=O)Nc2cc(C)ccc2OC)c1C
→ u | u
COc1ccccc1NC(=O)Cn1c(=O)n(Cc2ccccc2)c(=O)c2c1c1cc(C)ccc1n2C
→ -8% | -4%
Cc1cccc(Cn2c(=O)n(CCC(=O)NCc3ccc4c(c3)OCO4)c(=O)c3sccc32)c1
→ 5% | -10%

Single values from above:
COc1ccccc1NC(=O)Cn1c(=O)n(Cc2ccccc2)c(=O)c2c1c1cc(C)ccc1n2C – PMP22 txn = -8%
Cc1cccc(Cn2c(=O)n(CCC(=O)NCc3ccc4c(c3)OCO4)c(=O)c3sccc32)c1 – HTT promoter inh = -10%
